Bead autofluor: counter-screen for toxin protease inhibitors: compound fluorescence; AID 624483; compound autofluorescence counterscreen, microsphere flow cytometry; hits give high values; 360,000 compounds, 3.1% hits; fluorescence intensity (no concentration beside the values);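 active = at least 3 SD above the mean of all compounds, about 16000 in these data; inconclusive = too few beads counted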;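 also: 100 nL of 1 mM stock went into each well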
BJeLR viability: BJeLR cell viability loss | BJeLR (HRASV12) viability, CellTiter-Glo ATP luminescence, 48 h; reference of the scale not given here | inhibition, % (test concentration not listed) | 300,000 compounds, 0.17% hits;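 active = replicate mean above 50%; inconclusive = above 50% but judged a plate artefact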;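 also: 50 nL library stock added to about 25 µL; numbers are from one replicate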
PrP UTR inh: inhibition of PrP 5' UTR reporter expression; 340,000 compounds, 0.35% hits; inhibition, % (no concentration beside the values); AID 488862; cell-based PrP 5' UTR mRNA reporter, plate reader;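 active = every replicate at 50% or more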;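 also: 0 = median of the neutral control wells; tested in H4 reporter cells; numbers are from one replicate; inactives centre near -14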
Mtb hypoxia rep: Mtb hypoxia fluorescent reporter inhibition; M. tuberculosis hypoxia-regulated fluorescent reporter, fluorescence; fluorescence inhibition, % (no concentration beside the values); 300,000 compounds, 0.1% hits;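 active = 35 to 45% if threefold the growth effect, above 45% if 1.5-fold the growth effect; inactive = the rest, general growth blockers included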;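 also: wells of about 50 µL received 100 nL stock; 0% = vehicle wells and 100% = reference inhibitor wells; whole bacteria with a GFP reporter of the hypoxia response; strong numbers were not always called active; many hits fall short of the cut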
Sa ugtP lethal: compounds lethal to S. aureus RN4220 ugtP deletion mutant | 330,000 compounds, 0.54% hits | AID 1259309 | OD600 growth, 16 h; some inactives read as strong as hits | growth inhibition, % (no concentration beside the values);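 active = z-score under -3 and OD600 up to 0.15 on both plates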;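 also: plate controls were untreated wells for no effect and antibiotic for full effect; wells of about 80 µL received 100 nL stock; the first replicate is given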
Sa RN4220 lethal: kills Staphylococcus aureus RN4220 | S. aureus RN4220 growth, OD600, 16 h | inhibition, % (no concentration beside the values) | 330,000 compounds, 0.33% hits;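 active = z-score of -3 or lower and OD600 up to 0.18 on both plates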;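 also: plate controls were untreated cells for no effect and reference antibiotic for full effect; stock transfer was 100 nL into about 80 µL; one replicate is shown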
Mtb hypoxia rep growth: recorded beside Mtb hypoxia rep, whose call it bears; growth inhibition, %; measured here: M. tuberculosis growth (absorbance);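 0% = vehicle and 100% = reference antibiotic; read after six days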
* marks the source's active call; other numbers are inactive results; ? = inconclusive; · = not tested or not shown.

SMILES	Bead autofluor	BJeLR viability	PrP UTR inh	Mtb hypoxia rep	Mtb hypoxia rep growth	Sa ugtP lethal	Sa RN4220 lethal
O=C(COc1ccccc1[N+](=O)[O-])N1CCC(Cc2ccccc2)CC1	6036	4	-29	-2	-18	-4	0.8
O=C(COc1ccc(F)cc1)N(Cc1ccc(Cl)cc1)C1CCS(=O)(=O)C1 (configuration not stated)	5675	4	-12	0	0	2	3.8
NC(=O)c1ccc(-n2nnnc2Oc2ccccc2)cc1	5080	-4	-10	6	8	13	6.3
Cc1ccc(NC(=O)CNC(C)c2ccccc2)cc1 (configuration not stated)	3799	8	-47	0	-3	20	1.3
CC1(C)CC(CCC(=O)Nc2ccc(S(N)(=O)=O)cc2)C(=O)O1 (configuration not stated)	22673*	5	-24	0	7	-2	3.1
COC(=O)c1ccc(C2/C(=C(/O)c3ccc4c(c3)CC(C)O4)C(=O)C(=O)N2Cc2cccnc2)cc1 (configuration not stated)	6235	0	-21	-5	-3	5	1.9
CN(C)S(=O)(=O)c1ccc(C(=O)Nc2ccc3ncccc3c2)cc1	3456	-14	-40	-3	1	6	3.3
CCOP(=O)(OCC)C(=NOC(=O)c1ccccc1C)C(N)=O	·	·	·	6	3	-4	5.4
COc1ccc(-c2csc(NC(=O)CN3C(=O)C4CCCCC4C3=O)n2)cc1OC (configuration not stated)	6843	-1	-12	4	-1	5	-3.1
O=C(COc1ccc(Br)cc1Cl)N1CCN(c2ccccn2)CC1	5681	10	-27	2	0	-1	-0.5
CCCSc1cc(Cl)nc(N)n1	3514	-6	-12	1	5	13	6.6
COc1ccc(C(=O)NNC2CC(=O)N(Cc3ccccc3)C2=O)cc1OC (configuration not stated)	1992	12	3	15	8	8	5.8
Nc1ccc(NC(=O)NC2CCCCC2)cc1	4645	1	0	-10	-7	-7	-5.0
CCC(=O)N1CCc2cc(S(=O)(=O)NC(C(=O)NCc3ccc(F)cc3)C(C)C)ccc21 (configuration not stated)	9378	7	-1	-5	10	-2	1.0
O=C(C[n+]1ccc(Cc2ccccc2)cc1)Nc1ccc([N+](=O)[O-])cc1Cl	5784	1	-34	·	·	·	·
COc1ccc(S(=O)(=O)NNC(=O)c2cc3cc4ccccc4nc3s2)cc1	3331	-2	-25	7	4	12	2.4
COc1ccccc1N1CCN(C2CCN(C(=O)c3cc(OC)c(OC)c(OC)c3)CC2)CC1	9663	-2	-14	-1	10	-8	6.3
N#Cc1nc(COc2ccccc2)oc1N1CCOCC1	4029	-3	-8	7	7	2	1.1
Cc1cccc(OCC(=O)Nc2c3c(nn2C(C)(C)C)CS(=O)(=O)C3)c1	6256	-7	-5	3	1	0	4.0
CCc1ccc(S(=O)(=O)Nc2cc3c(cc2C)n(C)c(=O)n3C)cc1	4896	11	-8	4	-8	5	24
COc1cccc(NC(=O)N2CCN(C(=O)C(Cc3ccc(OC)c(OC)c3)NC(C)=O)CC2)c1 (configuration not stated)	18405*	-3	-12	11	9	-3	3.5
COc1ccccc1-c1nn2c(C(F)(F)F)nnc2s1	4287	5	-2	6	8	2	2.9
CN(CC(=O)Nc1ccc(Cl)c(C(F)(F)F)c1)C(=O)/C=C/c1cccs1	2837	·	-21	3	-1	66	7.9
COc1ccc(CCNC(=O)CSc2nc(C)nc3c2c(=O)n(C)c(=O)n3C)cc1OC	3777	4	8	3	8	4	4.8
Cc1nn2c(=O)nc3sc4c(c3c2[nH]c1=O)CCCC4	·	-7	·	·	·	-1	-1.7
Next section:
SMILES	Bead autofluor	BJeLR viability	PrP UTR inh	Mtb hypoxia rep	Mtb hypoxia rep growth	Sa ugtP lethal	Sa RN4220 lethal
CCOC(=O)c1c(C)[nH]c(C)c1C(=O)CSc1nc2ccccc2n1CC	2463	-5	-6	12	9	4	8.8
CCC(Sc1nc2ccccc2[nH]1)C(=O)Nc1cc(C)on1 (configuration not stated)	3011	-5	-25	15	14	-7	-6.9
O=C(O)c1ccc2cc[nH]c2c1	2950	0	-40	11	2	7	6.6
O=C(Nc1cccc(Cl)c1)C1=Cc2cc(Cl)ccc2OC1	2687	6	-11	24	-18	22	15
COc1ccc(/C=C/C(=O)NCCNC(=O)c2ccccc2)cc1OC	4426	1	-13	-3	-4	2	6.5
CCOc1cc(C2C3=C(CCCC3=O)NC3=C2C(=O)CCC3)ccc1OCCO	3746	2	-25	·	·	9	5.2
Cc1cc(=O)[nH]c(SCc2nc3ccccc3s2)n1	4516	-1	-16	·	·	-1	-1.8
COCCCn1c(=O)c2sccc2n2c(CCCC(=O)NCc3cccc(OC)c3)nnc12	5645	-1	-1	2	6	1	-1.1
O=C(c1ccncc1)c1ccc(NS(=O)(=O)c2ccc(Br)s2)cc1	7028	3	-7	14	7	-6	8.9
CSc1ccc(CN(C)C(=O)C2CCN(C(=O)Nc3ccccc3)CC2)cc1	3905	·	·	9	2	0	0.3
O=c1ccc2[n+]([O-])c3ccc(O)cc3oc-2c1	4208	14	-31	0	-17	1	6.0
CC1(C)CCC[C@]2(C)[C@H]3CC(=O)O[C@]3(C)CC[C@@H]12	3604	-7	-5	8	6	-7	0.6
O=C(NCCc1ccccc1)C1CCN(C2CCN(Cc3ccc(CO)o3)CC2)CC1	5255	0	-8	9	0	7	7.6
CC(OC(=O)c1ccc(Cl)c(S(N)(=O)=O)c1)C(=O)NCC1CCCCC1 (configuration not stated)	7948	·	-18	10	7	7	7.7
C/C(=N\Nc1ccccn1)c1ccc(S(=O)(=O)NCc2ccco2)cc1	2031	0	3	·	·	·	·
Nc1nc(SCc2ccccc2[N+](=O)[O-])c2ncn(Cc3ccccc3)c2n1	4022	·	-5	7	7	-5	1.3
CCCSc1nc(N2CCCC2)c2c(c1C#N)CC(C)(C)OC2	3289	-6	-15	5	3	39	0.5
CC(C)C[C@@H]1CN=C(N)N1C[C@@H]1CCCN1C[C@@H](C(C)C)N1C[C@@H](Cc2ccccc2)N(CCc2ccc(Cl)c(Cl)c2)C1=N	3117	·	2	10	23	100*	99*
CCN(CC)C(=O)N1CCN(S(=O)(=O)c2ccccc2)CC1	3339	-2	4	6	9	2	8.3
Cc1cc(NC(=O)CSc2nnnn2Cc2ccccc2)no1	3618	-3	-4	-5	-7	6	-1.1
COc1ccc(NS(=O)(=O)c2cccc(C(=O)NCc3ccccc3CN3CCCC3)c2)cc1	·	·	·	8	1	12	3.4
COc1ccc(-n2nc3c(N4CCC(C(=O)NCc5ccccc5C)CC4)nnc(C)c3c2C)cc1	8875	-11	-8	4	8	1	0.4
Cc1cc(C)nc(NC(=O)CSc2nc3cc(Cl)ccc3s2)n1	2847	-8	-41	·	·	-3	0.1
O=C(NC(=O)C(F)(F)F)Nc1ccc(S(=O)(=O)Nc2nccs2)cc1	3216	-3	13	14	14	5	4.6
CCOc1ccc(-c2[nH]nc3c2C(c2ccc4c(c2)OCO4)C(C#N)=C(N)O3)cc1OC (configuration not stated)	3277	-7	-21	·	·	·	·

Pulled by structure from the entries so far:
SMILES	Bead autofluor	BJeLR viability	PrP UTR inh	Mtb hypoxia rep	Mtb hypoxia rep growth	Sa ugtP lethal	Sa RN4220 lethal
CCOc1cc(C2C3=C(CCCC3=O)NC3=C2C(=O)CCC3)ccc1OCCO	3746	2	-25	·	·	9	5.2
COc1ccc(/C=C/C(=O)NCCNC(=O)c2ccccc2)cc1OC	4426	1	-13	-3	-4	2	6.5
CCOC(=O)c1c(C)[nH]c(C)c1C(=O)CSc1nc2ccccc2n1CC	2463	-5	-6	12	9	4	8.8
CCN(CC)C(=O)N1CCN(S(=O)(=O)c2ccccc2)CC1	3339	-2	4	6	9	2	8.3

Continuation:
SMILES	Bead autofluor	BJeLR viability	PrP UTR inh	Mtb hypoxia rep	Mtb hypoxia rep growth	Sa ugtP lethal	Sa RN4220 lethal
COc1cc(C(=O)Nc2ccc(S(=O)(=O)Nc3onc(C)c3C)cc2)cc(OC)c1OC	2737	-4	-15	·	·	0	-4.6
CCS(=O)(=O)C1=NSC2=NC(=O)/C(=C\c3ccc(OC(=O)c4ccco4)cc3)C(=N)N21	5691	-3	-7	0	8	6	14
O=C(CSc1nnc(-c2c[nH]c3ccccc23)o1)N1c2ccccc2CCc2ccccc21	9591	12	-23	8	-4	-15	-11
Oc1cc(CNC2CCCCC2)c(O)cc1CNC1CCCCC1	2830	·	-5	3	2	3	6.6
COc1cccc(-n2c(SCC(=O)N3CCOCC3)nnc2-c2c[nH]c3ccccc23)c1	4861	-4	1	5	10	-9	-10.0
CC(=O)Nc1ccc(-c2nnn(CC(=O)c3ccccc3)n2)cc1Cl	3917	0	-10	·	·	8	-1.6
O=CNNC(=O)c1cccc([N+](=O)[O-])c1	2311	1	-5	0	2	-3	4.4
Cc1ccccc1CNC(=O)Cn1ccc2cc(S(=O)(=O)N3CCCCCC3)ccc21	5905	4	-10	13	1	-5	-4.1
S=C(Cc1ccc(-c2ccccc2)cc1)N1CCOCC1	4271	-4	·	12	2	12	7.4
Cc1ccccc1N(C(=O)Cc1ccsc1)C(C(=O)NC1CCCCC1)c1ccc(F)cc1 (configuration not stated)	9780	-1	-13	3	2	4	6.3
Fc1ccc(OCc2nc(-c3ccc(Br)o3)no2)c(F)c1	3908	5	-29	-7	-7	-5	14
O=C(CCCN1C(=O)S/C(=C/C=C/c2ccccc2)C1=O)Nc1ccc(C(=O)O)cc1	5888	7	-13	7	19	-7	15
CCC(C)(C)NC(=O)C(c1ccccn1)N(C(=O)c1csnn1)c1ccccc1 (configuration not stated)	3218	4	-3	5	8	-3	0.9
Cc1ccc(-n2nc3c(N4CCC(C(=O)NCc5cccc(F)c5)CC4)nnc(C)c3c2C)cc1	10945	2	-15	-10	8	2	-6.3
COCCn1cnc2c1c(=O)n(Cc1ccc(Br)cc1)c(=O)n2Cc1ccccc1	3879	4	-33	13	12	18	-5.3
O=C(NNC(=O)c1cc2cc(OC(F)(F)F)ccc2[nH]1)c1ccc(Cl)cc1	6075	-11	·	-5	8	-6	-3.1
Cc1csc(NC(=O)CSc2nc3[nH]ncc3c(=O)[nH]2)n1	4136	8	-19	3	4	-10	-2.0
CN(C(=O)c1ccc(NC(=O)Cc2cccc([N+](=O)[O-])c2)cc1)C1CCCC1	3067	·	-4	7	5	3	-0.8
CN(C)c1ccc(NC(=O)Cn2cc3c(n2)CCCC3)cc1	4563	-10	-16	·	·	10	-2.9
Nc1ccc(C(=O)C(=O)c2ccc(N)cc2)cc1	4245	3	-6	·	·	·	·
Cc1ccc(S(=O)(=O)C(C#N)=C2N(C)c3ccccc3N2C)cc1	4971	0	-9	2	6	13	0.4
CC1CCN(c2ccc3c(c2)S(=O)(=O)c2cccc(C(=O)NCC4CCCO4)c2C3=O)CC1 (configuration not stated)	·	·	·	16	12	4	6.0
C/C(CCc1ccc2c(c1)OCO2)=N\NC(=O)c1ccccc1Br	1992	-3	-5	·	·	·	·
COC(=O)C1=C(c2ccc(F)cc2OCc2ccccc2)CC2CCC1N2C(=O)N1CCCC1 (configuration not stated)	·	·	·	9	1	-3	-0.9
COc1ccc(OC)c(C(C[N+](=O)[O-])c2c(C)cc3ccccn23)c1 (configuration not stated)	5199	10	-30	1	12	2	9.5
Going on with the list.
SMILES	Bead autofluor	BJeLR viability	PrP UTR inh	Mtb hypoxia rep	Mtb hypoxia rep growth	Sa ugtP lethal	Sa RN4220 lethal
COc1ccc(C)cc1S(=O)(=O)N1CCC2(CC1)OCCN2S(=O)(=O)c1ccccc1	6336	5	-17	2	6	1	0.6
O=C(COc1ccccc1Cl)Nc1ccccc1C(=O)NC1CC1	?	-4	-29	3	6	1	1.4
CCn1c(SCC(=O)N2CCCCC2C)nnc1-c1ccco1 (configuration not stated)	3502	-6	-21	11	6	13	0.7
Cc1ccc(NC2Sc3ccccc3NC2=O)cc1 (configuration not stated)	5035	5	-51	-1	2	5	1.8
NS(=O)(=O)c1ccc(CCNC(=O)CN2CCN(S(=O)(=O)c3ccccc3F)CC2)cc1	3717	·	·	3	3	2	2.2
O=[N+]([O-])c1cccc(/C=C/c2nc(C=Nc3ccc4ccccc4c3)c(O)o2)c1	17170*	·	-1	3	-10	-8	2.5
NC(=O)[C@@H]1CCCN1C(=O)c1cc(COc2ccc3c(c2)CCCC3)on1	6484	10	-41	15	2	-4	4.0
O=C(CN(Cc1ccccc1)C1=NCCS1)c1ccccc1	9435	9	-24	7	-2	10	4.0
CCS(=O)(=O)c1ncc(Cl)c(C(=O)Nc2ccccc2OC)n1	3851	16	-13	·	·	·	·
CCOC(=O)c1c(-c2ccc(C)cc2)csc1NC(=O)CCN1CCOCC1	2468	-9	-16	8	5	1	2.2

This is a random part of the collection. Share with any hit: about 4%.
